High-throughput results from PubChem BioAssay.
HCMV UL50-53 inh – inhibitors of HCMV UL50-UL53 interaction, biochemical, HTRF | HCMV UL50-UL53 nuclear egress complex (human cytomegalovirus) | normalized percent inhibition | inhibition, % (no concentration beside the values) | actives 0.15% (n = 190,000);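 active means both replicates at 50% or more, plus weaker picks with an unusually low signal ratio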;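 further: stock transfer was 100 nL into about 20 µL; 0% = negative control wells and 100% = wells with untagged competitor protein; inactives centre near -12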
Sa growth inh – S. aureus growth inhibition at 42 and 30 °C, primary screen, LtaS inhibitor project, RN4220, two temperatures; relative growth, % (test concentration not listed); actives 0.53% (n = 170,000); OD600, 20 h, 42 °C; stronger effect = lower value; AID 720641, 2013;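 active means growth at 42 °C up to 50% and 20 or more points under that at 30 °C, or under 10% at both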;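 further: 300 nL library stock went into each well; scaled to the means of positive and negative controls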
GIV Gai3 FP – inhibitors of GIV peptide binding to Galpha-i3, primary screen, biochemical, fluorescence polarization, FITC-GIV GBA peptide, rat Galphai3; 90 min; stronger effect = lower value; scaled: aluminum fluoride 0%, vehicle 100%; percent of control (FP), % (concentration not given with the values); actives 0.42% (n = 210,000); AID 1224905, 2016;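 active means replicate mean at 85% of control or lower, very high polarization wells dropped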;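 further: wells of about 15 µL received 100 nL stock; the first replicate is given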
Target sequence (P08753 whole entry, looked up): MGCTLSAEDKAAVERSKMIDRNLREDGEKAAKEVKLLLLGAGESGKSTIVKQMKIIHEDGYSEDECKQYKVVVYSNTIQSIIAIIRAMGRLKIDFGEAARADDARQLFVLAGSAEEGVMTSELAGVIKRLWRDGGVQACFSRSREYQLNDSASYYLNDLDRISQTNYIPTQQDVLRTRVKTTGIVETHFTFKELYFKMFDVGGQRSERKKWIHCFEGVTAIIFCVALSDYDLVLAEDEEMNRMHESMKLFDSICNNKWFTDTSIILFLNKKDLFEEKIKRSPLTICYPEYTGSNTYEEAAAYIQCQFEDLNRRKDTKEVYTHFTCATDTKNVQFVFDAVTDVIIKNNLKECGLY
Sa growth inh second temp – also measured in Sa growth inh; calls as there; relative growth, %; measured here: growth at 30 °C;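 optical density after 20 h as mean of two plates; 100% = untreated growth and lower means inhibition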
Numbers without * were called inactive; · = no result given; & = joins results of further samples.

SMILES | HCMV UL50-53 inh | Sa growth inh | Sa growth inh second temp | GIV Gai3 FP
Cc1cc2c(cc1S(=O)(=O)NC1CCCCCCC1)OCC(=O)N2 | 6 | 111 | 88 | 99
COC(=O)c1cc(OC)c(OC)cc1NC(=O)c1c(C)oc2ccc(OC)cc12 | -6 | · | · | 108
CC1CCC(C(=O)NC(C(=O)N2CCc3ccccc3C2)C(C)C)CC1 (stereo unspecified) | -7 | 103 | 82 | 103
COc1ccccc1NCC(=O)N/N=C1/CCCCC1C (stereo unspecified) | -14 | 91 | 85 | 104
O=C(O)c1nn(-c2ccc(Cl)cc2Cl)c(=O)cc1O | -18 | 97 | 92 | 103
O=C(CCc1nc2sc3c(c2c(=O)[nH]1)CCCCC3)N1CCc2ccccc2C1 | -16 | · | · | 99
CC1(C)CC(=O)C(Sc2ccc(Br)cc2)=C(O)C1 | -33 | 112 | 87 | 99
CCC(C)NC(=O)c1cc(-c2ccncc2)n(-c2ccccc2)n1 (stereo unspecified) | 16 | · | · | 104
COc1ccc(C(=O)Nc2nnc(S(=O)(=O)N3CCN(c4ccc(C)cc4)CC3)s2)cc1 | -9 | 106 | 95 | 100
O=C(O)C1C2CC=CC2c2cc(Br)cc3c2N1CC1CC=CC31 (stereo unspecified) | -10 | 108 | 77 | 106
Clc1ccccc1Cn1c(CSC2=NCCN2)nc2ccccc21 | · | 99 | 84 | 101
Cc1ccc(C)c(N2CCN(CCCNC(=O)c3cnn(-c4ccccc4Cl)c3C3CCN(C(=O)OC(C)(C)C)CC3)CC2)c1 | · | 123 | 52 | 106
O=S(=O)(Cc1ccccc1)N1CCN(c2nc3ccccc3n3cccc23)CC1 | -40 | · | · | 110
Cc1nc(-n2nc(C)c(Cl)c2C)sc1C(=O)N1CCCCC1C (stereo unspecified) | 18 | · | · | 96
O=C1CCCC2=C1C(c1ccncc1)Nc1ccccc1N2 (stereo unspecified) | 13 | 97 | 104 | 96
Cc1ccc(Cn2nnc3c(=O)n(Cc4cccc(C)c4)cnc32)cc1 | · | 88 | 73 | 96
NC(=O)CSc1ncccc1C(=O)O | -18 | 71 | 93 | ·
Cc1cccn2c(=O)c(/C=N/O)c(Nc3ccc(Cl)cc3)nc12 | -15 | 104 | 76 | 98
O=S(=O)(c1ccccc1)N1CCN=C1N1CCN(c2cccc(Cl)c2)CC1 | -11 | · | · | 102
O=C1CCC/C1=c1/s/c(=C/c2cccnc2)c(=O)n1-c1ccccc1 | -37 | 83 | 98 | ·
COc1ccccc1NC(=O)CSc1ncc2c(n1)-c1cc(Cl)ccc1N(Cc1ccccc1)S2(=O)=O | · | 81 | 91 | 115
COc1ccc(-c2ocnc2C(=O)NCCN2CCCCC2)cc1 | -17 | · | · | 105
Cc1c(C(=O)Nc2ccccc2Cl)oc2c1C(O)CC(C)(C)C2 (stereo unspecified) | -5 | 97 | 108 | 105
O=C1NC(=S)N(c2ccc(Br)cc2)C(=O)/C1=C/c1cccn1-c1ccccc1 | 4 | · | · | 109
N#CC(C#N)=C1CCc2ccccc21 | -25 | 97 | 80 | 107
Cc1ccc(OCC(=O)Nc2nnc(Cc3nc4ccccc4[nH]3)s2)cc1 | -49 | · | · | 145
COc1cc(S(=O)(=O)N2CCN(c3c(C)cc(C)cc3C)CC2)ccc1F | 2 | 110 | 102 | 104
O=C1CC(NNc2ccccc2)C(=O)N1 (stereo unspecified) | -58 | 109 | 86 | 97
COc1ccc(CCN2C(=O)c3[nH]nc(-c4ccccc4O)c3C2c2ccc(OC)c(OC)c2)cc1 (stereo unspecified) | -11 | 109 | 88 | 100
Cn1c(=O)n(C)c2cc(/C=N/NC(=O)Nc3ccccc3)ccc21 | -28 | 74 | 73 | 96
CCOC(=O)N1c2ccccc2C=CC1OCC (stereo unspecified) | 2 | 96 | 87 | ·
Nc1nnc(SCC(=O)N2CCCCC2)s1 | -5 | 114 | 86 | ·
O=C(Cn1c(=O)n(CC(=O)NC2CCCC2)c(=O)c2ccccc21)Nc1ccc(Br)cc1 | · | 94 | 72 | 108
COc1ccc(NC(=O)c2cc(S(=O)(=O)N3CCCCC3)cn2C)cc1Cl | · | 108 | 95 | 100
COc1cccc(CNC(=O)Cn2ccc3cc(S(=O)(=O)N4CCCC4)ccc32)c1 | · | 124 | 88 | 101
O=C(Nc1ccc2oc(-c3cccnc3)nc2c1)c1ccccc1F | -52 | 103 | 93 | 102
Cc1ccc2nc(/C(C#N)=C\C3CC4C=CC3C4)[nH]c2c1 (stereo unspecified) | -6 | 110 | 95 | 136
Oc1cc(O)c2ncccc2c1 | -55 | 29 | 26 | 109
COCCNC(=O)Cn1nc(C)c2c(C)n(-c3ccc(C)cc3)nc2c1=O | · | 98 | 95 | 109
CON(C)c1ncnc2scc(-c3ccc(C)cc3)c12 | -34 | 85 | 84 | ·
O=S(=O)(CC(CN1CCCCC1)N1CCCCC1)c1ccccc1 (stereo unspecified) | -10 | 100 | 88 | ·
COc1ccc(CCNc2cc(C)nc3c(-c4ccc(F)cc4)cnn23)cc1OC | 3 | · | · | 96
c1ccc2c(-c3nnc(CN4CCOCC4)o3)cccc2c1 | -9 | 109 | 90 | 102
CC1CCCCN1C(=O)COc1ncnc2sccc12 (stereo unspecified) | -27 | 72 | 96 | ·
CCOC(=O)C1C(=O)NC(N2CCOCC2)=NC1c1ccccc1 (stereo unspecified) | 0 | 114 | 110 | 101
Cc1ccc(NC(=O)C2CCN(S(=O)(=O)c3ccc4c(c3)CCCC(=O)N4)CC2)c(Br)c1 | · | 103 | 85 | 104
O=C(Nc1ccccc1)Nc1ccccc1N1CCOCC1 | -13 | 99 | 92 | 102
O=C(CC1(O)C(=O)Nc2ccccc21)c1ccccc1O (stereo unspecified) | -49 | 92 | 68 | 95
CN(C)c1ccc(CCNC(=O)c2ccco2)cc1 | -19 | 102 | 79 | ·
COc1ccccc1C(=O)N(Cc1nc(-c2cccc(C)c2)no1)C(C)C | -36 | 113 | 83 | 96
Cc1ccc2c(=O)cc(C(=O)Nc3c(C(=O)c4ccc(F)cc4)oc4ccccc34)oc2c1C | -13 | 100 | 90 | 98
COc1ccc(/C=C/c2nc(C#N)c(NCCc3ccccc3)o2)cc1OC | 5 | 107 | 93 | 101
Cc1cc(NC(=O)CN2C(=O)CCC2=O)no1 | -22 | 89 | 84 | 101
Cc1ccn2c(=O)c(NC(=O)c3ccccc3)cnc2c1 | -42&-31 | 104 | 92 | 109&104
c1ccc(Oc2cnc3ccccc3n2)cc1 | -21 | · | · | 107
CC(C)(Oc1ccc(Cl)cc1)C(=O)Nc1ccc(Cl)cn1 | -6 | 96 | 73 | 105
COc1ccccc1N1CCN(C(=O)c2cnn3c2NC(c2ccc(Br)cc2)CC3C(F)(F)F)CC1 (stereo unspecified) | -19 | · | · | 88
CCOC(=O)C1=NN(C(=O)COc2ccccc2)C(O)(c2ccc(Br)cc2)C1 (stereo unspecified) | -27 | 107 | 87 | 101
Cc1c(NC(=O)C(C)(C)Oc2ccc(Cl)cc2)cccc1-c1nc2ccccc2o1 | -18 | 78 | 82 | 104
CCc1ccc(-c2cc(C)no2)cc1S(=O)(=O)N1CCN(C2CCCCC2)CC1 | -9 | 85 | 70 | 104

Next section; the last four above are carried over.
SMILES | HCMV UL50-53 inh | Sa growth inh | Sa growth inh second temp | GIV Gai3 FP
COc1ccccc1N1CCN(C(=O)c2cnn3c2NC(c2ccc(Br)cc2)CC3C(F)(F)F)CC1 (stereo unspecified) | -19 | · | · | 88
CCOC(=O)C1=NN(C(=O)COc2ccccc2)C(O)(c2ccc(Br)cc2)C1 (stereo unspecified) | -27 | 107 | 87 | 101
Cc1c(NC(=O)C(C)(C)Oc2ccc(Cl)cc2)cccc1-c1nc2ccccc2o1 | -18 | 78 | 82 | 104
CCc1ccc(-c2cc(C)no2)cc1S(=O)(=O)N1CCN(C2CCCCC2)CC1 | -9 | 85 | 70 | 104
COc1ccc(-c2noc(CSCC(=O)O)n2)cc1OC | -26 | 96 | 82 | 101
CCCCC(=O)Nc1ccc(I)c(C)n1 | 1 | 7 | 6 | 103
FC(F)(F)c1cc(Cl)c2nc(-c3n[nH]c(=S)o3)cn2c1 | -6 | 97 | 94 | 108
CNC(=O)c1ccc(Nc2nnc(-c3ccc(C)c(S(=O)(=O)N4CCOCC4)c3)c3ccccc23)cc1 | -29 | 101 | 92 | 100
O=C(c1ccc(S(=O)(=O)N2CCOCC2)o1)N1CCOCC1 | -2 | 97 | 80 | 105
O=C(CCc1ccccc1)NCc1ccccn1 | · | 108 | 90 | 93
COC(CNC(=O)C1CCN(S(=O)(=O)c2cccc3nsnc23)CC1)OC | · | 84 | 94 | 99
O=C(CCCn1c(=O)c2cccn2c2ccccc21)Nc1cccc(Cl)c1 | -9 | 91 | 80 | 103
NC(=O)c1ccccc1Sc1ccccc1C(N)=O | -34 | 88 | 85 | 103
CCOc1ccccc1C1C2=C(CC(c3ccc(OC)cc3)CC2=O)Nc2onc(C)c21 (stereo unspecified) | -8 | · | · | 103
Cc1ccc(NC(=O)CSCc2cnn(-c3ccccc3)c2-n2cccc2)c(Cl)c1 | -10 | 115 | 84 | 100
CC(C)CNC(=O)c1cc2sccc2n1Cc1ccccc1 | 13 | 96 | 72 | 98
Cn1c(O)c(N=NC(=O)CNC(=O)c2ccccc2)c2ccccc21 | -46 | 86 | 88 | ·
O=C(CSC1=NC(=O)C(c2ccccc2)C(=O)N1)NC1CCCCC1 (stereo unspecified) | · | 105 | 81 | 101
O=C(Cn1ncc2ccccc21)Nc1ccc(Cl)cn1 | 4 | 99 | 90 | 100
Cc1nc2nc(Cc3ccccc3)[nH]n2c(=O)c1C | -7 | · | · | 100
CCOC(=O)c1ccc(NC(=O)C(C)Sc2nc(=O)cc(N)n2CCc2ccccc2)cc1 (stereo unspecified) | -17 | 87 | 80 | 107
Cc1cc2nc(NC(=O)c3ccc(S(=O)(=O)N4CCOCC4)cc3)sc2cc1C | · | 76 | 86 | 98
Cc1ccc(CN2CCC(CNC(=O)Nc3c(C)cccc3C)C2)cc1 (stereo unspecified) | -11 | 95 | 80 | 99
CCN(CC)c1ccc2cc(-c3ncc(-c4ccc(F)cc4)o3)c(=O)oc2c1 | -24 | 96 | 89 | ·

Whole records, quoted from the list. Order of screens: HCMV UL50-53 inh | Sa growth inh | Sa growth inh second temp | GIV Gai3 FP
O=C(O)c1nn(-c2ccc(Cl)cc2Cl)c(=O)cc1O is entered as -18 | 97 | 92 | 103
FC(F)(F)c1cc(Cl)c2nc(-c3n[nH]c(=S)o3)cn2c1 is entered as -6 | 97 | 94 | 108
CCOC(=O)C1C(=O)NC(N2CCOCC2)=NC1c1ccccc1 (stereo unspecified) is entered as 0 | 114 | 110 | 101
COc1ccccc1NCC(=O)N/N=C1/CCCCC1C (stereo unspecified) is entered as -14 | 91 | 85 | 104
Cc1ccn2c(=O)c(NC(=O)c3ccccc3)cnc2c1 is entered as -42&-31 | 104 | 92 | 109&104

Ordered by SMILES length (high to low): part of the list above.
SMILES | HCMV UL50-53 inh | Sa growth inh | Sa growth inh second temp | GIV Gai3 FP
CCOC(=O)c1ccc(NC(=O)C(C)Sc2nc(=O)cc(N)n2CCc2ccccc2)cc1 (stereo unspecified) | -17 | 87 | 80 | 107
O=C(CSC1=NC(=O)C(c2ccccc2)C(=O)N1)NC1CCCCC1 (stereo unspecified) | · | 105 | 81 | 101
COc1ccc(-c2noc(CSCC(=O)O)n2)cc1OC | -26 | 96 | 82 | 101

Following part
SMILES | HCMV UL50-53 inh | Sa growth inh | Sa growth inh second temp | GIV Gai3 FP
O=C(N[C@@H](Cc1ccccc1)C(=O)OCc1ccccc1)c1ccco1 | 4 | 101 | 93 | ·
Cc1cc(C)n2nc(CNC(=O)c3cccc(N(C)C)c3)nc2n1 | 5 | 102 | 89 | 106
COC(=O)C(Cc1ccccc1)NC(C)=O (stereo unspecified) | 4 | 114 | 99 | 97
CN(C)/C=N/c1nc2ccccc2s1 | -4 | 61 | 72 | ·
COC(=O)C1=CNC=C(C(=O)OC)C1c1cccc(OC)c1 | 0 | 104 | 99 | 108
COC(=O)c1nc2n(n1)C(c1cc(OC)c(OC)c(OC)c1)C=C(c1cccc(OC)c1)N2 (stereo unspecified) | 2 | 101 | 91 | 99
CCOc1ccc(NC(=O)c2c(NCc3cccnc3)sc3c2CCCC3)cc1 | · | 87 | 84 | 103
O=C(CCSc1ccccn1)c1ccc(Cl)cc1 | -9 | 40 | 43 | 102
COc1ccc(/C=C(\NC(=O)c2ccccc2)C(=O)Nc2ccc(F)cc2)cc1OC | -10 | 112 | 95 | ·
CCOC(=O)c1oc2ccc(S(=O)(=O)Nc3ccc4c(c3)n(C)c(=O)n4C)cc2c1C | 4 | · | · | 100
COc1ccc(NC(=O)CSc2nc3ccccc3n3cnnc23)cc1 | -49 | · | · | 97
CCOC(=O)c1c(C(=O)CSc2ncc(-c3ccc(F)cc3)n2Cc2ccco2)sc2c1CCCC2 | -4 | 102 | 72 | 101
Cc1cccc(NC(=O)/C=C/c2ccccc2)c1 | · | 113 | 93 | 98
O=c1ccn(-c2ccc(F)cc2)nc1-c1ccn[nH]1 | -34 | 105 | 92 | 109
Cc1occc1C(=O)N=Nc1c(O)n(Cc2ccccc2Cl)c2ccccc12 | -11 | 106 | 96 | ·
O=S(=O)(c1ccc(N=C2NN=C(c3cc(F)ccc3F)CS2)cc1)N1CCOCC1 | -25 | 86 | 94 | ·
COc1cccc(NC(=O)CN2C(=O)c3ccccc3Sc3ncccc32)c1 | · | 101 | 80 | 99
